STK33 inh = inhibitors of purified STK33 kinase, primary screen, biochemical, ADP-Glo luminescence, homogeneous, cell-free | hit rate 0.073% among 320,000 | MBP phosphorylation | AID 2661, 2010 | inhibition, % at 10 µM;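 active means inhibition at or above 25%, using the most active replicate where run in duplicate; inactive means inhibition below 25%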
Target sequence (Q9BYT3 whole entry, looked up): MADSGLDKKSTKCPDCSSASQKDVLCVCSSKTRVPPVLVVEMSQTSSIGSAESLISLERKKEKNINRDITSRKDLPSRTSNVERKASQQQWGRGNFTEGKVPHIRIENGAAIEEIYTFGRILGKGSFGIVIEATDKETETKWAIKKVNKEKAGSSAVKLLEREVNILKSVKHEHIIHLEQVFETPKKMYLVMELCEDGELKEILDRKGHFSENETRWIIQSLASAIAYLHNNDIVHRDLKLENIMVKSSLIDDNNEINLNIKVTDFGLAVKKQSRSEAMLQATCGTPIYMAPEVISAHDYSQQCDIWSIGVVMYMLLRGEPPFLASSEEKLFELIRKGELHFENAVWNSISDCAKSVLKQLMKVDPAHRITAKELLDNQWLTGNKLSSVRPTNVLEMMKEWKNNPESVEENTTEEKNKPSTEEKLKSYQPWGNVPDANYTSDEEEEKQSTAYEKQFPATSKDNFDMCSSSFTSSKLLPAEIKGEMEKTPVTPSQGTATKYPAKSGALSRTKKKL
* = called active by the depositor. Some of the compounds tested; most or all hits stand in other tables.

Molecule | STK33 inh
O=C(CN1CCN(Cc2ccc(Cl)cc2)CC1)N/N=C/c1ccncc1 | -1.4
OC1(c2ccc(OC(F)F)cc2)CSC(=Nc2cccnc2)N1C1CC1 (stereo not given) | -1.7
CCc1cccc(NC(=O)NC2CCCCC2)c1 | -1.6
COc1ccc(C2C(C(=O)N3CCN(c4ccccc4)CC3)c3ccccc3C(=O)N2C)cc1OC (stereo not given) | -2.0
Cc1cc(=O)[nH]c(/N=C(\N)Nc2ccc(Oc3ccccc3)cc2)n1 | -0.7
O=C(Nc1ccccc1)Nc1ccccc1-n1ccnc1 | -0.4
O=C(Nc1ccc(F)cc1)N(CCCN1CCOCC1)Cc1cc2cc3c(cc2[nH]c1=O)OCCO3 | -0.8
CCOc1ccc(NC(=O)CCN2CCN(S(=O)(=O)c3ccc(Cl)cc3)CC2)cc1 | -0.3
COc1ccc(C2Nc3ccccc3C(=O)N2c2ccccc2)cc1CSc1ccccn1 (stereo not given) | -2.2
CCOc1ccc(NC(=O)Nc2ccc(Cc3ccncc3)cc2)cc1 | 0.6
CC(C)CCNC(=O)c1ccc(OC2CCN(S(=O)(=O)N(C)C)CC2)cc1 | 0.2
COc1cccc(-c2ncc3ccccc3c2COC(=O)N2CCCCC2)c1 | -2.2
CC1=C(C(=O)Nc2ccccc2)C(c2ccc(C)o2)n2ncnc2N1 (stereo not given) | -1.2
CCc1cc(C(=O)c2ccc(OC)cc2)c(NC(=O)CN2CCCC2)s1 | -1.3
CC1CCc2c(sc(NC(=O)c3ccco3)c2C(=O)O)C1 (stereo not given) | -1.0
CCOC(=O)C1=C(CC)OC(N)=C(C#N)C1c1ccc(OC)cc1OC (stereo not given) | -1.1
O=C(OCc1cccs1)c1ccccc1NS(=O)(=O)c1ccc2c(c1)OCCO2 | -1.6
O=C(NNc1cc(Cl)ccc1Cl)c1cccnc1Cl | -0.6
CC(C)S(=O)(=O)N1CCN(c2ccnc3cc(Cl)ccc23)CC1 | -0.1
Cc1ccc(C(=O)NC(=O)CSc2ncccc2C(=O)O)cc1 | -2.0
c1ccc(-n2nnnc2NCCCN2CCOCC2)cc1 | -0.2
Cc1cc(NC(=O)c2ccco2)c(=O)n(Cc2c(F)cccc2Cl)c1 | 0.3
CCN(CC)c1nc(-c2ccccc2)ncc1S(=O)(=O)c1ccc(C)cc1 | 0.4
COc1cc(C)c(CN2CCC(n3nccc3NC(=O)C3CCOC3)CC2)cc1C (stereo not given) | -0.2
Cn1c(Cc2c[nH]c3ccccc23)n[nH]c1=S | -0.6
CCC(O)(CCN1CCCCC1)c1ccccc1 (stereo not given) | -0.3
O=C(Cc1noc2ccccc12)Nc1ccccn1 | 1.2
CC1(C)C(c2ccccc2)=[N+]([O-])C2(CCCCC2=O)N1O (stereo not given) | -0.1
CN(C)S(=O)(=O)c1cc(C(=O)NCc2ccccc2)c(Cl)cc1Cl | -0.8
CC(OC(=O)Cc1n[nH]c(=O)c2ccccc12)C(=O)Nc1ccccc1[N+](=O)[O-] (stereo not given) | -3.0
COc1ccc2[nH]cc(C(=O)CN3CCC(C)CC3)c2c1 | -1.9
CCCCC(=O)NC(=S)Nc1cccc(NC(=O)c2ccccc2)c1 | -1.0

Brought forward from above: 2 compounds, then new ones.
Molecule | STK33 inh
COc1ccc2[nH]cc(C(=O)CN3CCC(C)CC3)c2c1 | -1.9
CCCCC(=O)NC(=S)Nc1cccc(NC(=O)c2ccccc2)c1 | -1.0
Cc1ccc(NC(=O)CS(=O)CC(=O)Nc2ccc(N3CCOCC3)cc2)cc1Cl (stereo not given) | 0.0
CCCCOc1ccccc1C(=O)NCCCCCC(=O)O | 0.6
CN1C(=O)CSC1=Nc1cccc(Cl)c1 | -1.7
Cn1c(=O)c2c(nc(NC3CCCCC3)n2Cc2ccccc2)n(C)c1=O | -1.4
CC(=O)Nc1nccc(-c2cc(-c3ccccc3)no2)n1 | -0.6
NNC(=O)C(=O)/C=C1\NC2(CCCC2)Cc2ccccc21 | -0.1
CC(=O)c1ccc(O)c(CC=C(C)C)c1O | 1.9
COCCN(C(=O)COC(=O)c1sccc1C)c1c(N)n(Cc2ccccc2)c(=O)[nH]c1=O | -2.4
Cc1ccc(C)c(Nc2ncnc3nc[nH]c23)c1 | -1.1
CCOc1ccc(N2C(=O)c3cccnc3C2Nc2ccc(C)cc2)cc1 (stereo not given) | 1.1
Cc1cc(C(=O)N2CCCC(Nc3ccccc3)C2)c2ccc(F)cc2n1 (stereo not given) | -2.3
CCc1nnc(NC(=O)C2CCC(CNc3c(N4CCCCC4)c(=O)c3=O)CC2)s1 (stereo not given) | -1.0
CCOC(=O)N1CCC(NC(=O)c2cc(C(=O)NCc3ccc(F)cc3)ccc2CO)CC1 | -0.8
Cc1ccc(OCC(=O)NCCC2=CCCCC2)cc1 | -2.3
Cc1cc(N/N=C/c2ccc(F)cc2)nc(-n2nc(C)cc2C)n1 | -0.6
Cc1ccc(CCCOC(=O)C[N+]2(C)CCOCC2)cc1 | -2.2
CN1CCN(c2ccccc2NC(=O)Cc2ccc(Cl)cc2)CC1 | -0.6
O=C(CS(=O)(=O)c1ccccc1)c1cc2ccccc2oc1=O | 0.3
C=CCNc1ccc(F)c(F)c1N1CCCCCC1=O | -0.5
CCCS(=O)(=O)N1CCCC(C(=O)NCCN(CC)CC)C1 (stereo not given) | 5.4
O=C(O)Cc1coc(-c2ccc(F)cc2)n1 | -0.8
CCN(CC)S(=O)(=O)c1ccc(NC(=O)c2ccccn2)cc1 | -0.7
Cc1ccc(OCC(=O)N/N=C/c2cccn2C)cc1 | -0.1
Cc1c(C)n(C(=O)CN2CCC(C(N)=O)CC2)c2ccccc12 | -2.5
CCc1nnc(NC(=O)c2nc(S(=O)(=O)Cc3ccccc3)ncc2Cl)s1 | -2.4
CCOC(=O)N1CCC(N2C(=O)c3ccc(C(=O)O)cc3C2=O)CC1 | -0.4
CCC(=O)NNc1ncnc2c1cnn2-c1ccccc1 | 0.1
O=C(Cn1cnc2cc([N+](=O)[O-])ccc2c1=O)NCCc1ccc(Cl)cc1 | -0.6
Cc1ccc(CNC(=O)CN(C)S(=O)(=O)c2cccs2)cc1 | -2.2
Cc1ccc(S(=O)(=O)N2CCOCC2)cc1C(=O)N(Cc1nnc(-c2ccccc2Cl)o1)C1CC1 | -0.3
COc1ccc(NC(=O)CN(C)C(=O)c2cc(-c3ccc(OC)cc3)nc3ccccc23)cc1 | 0.0
COc1ccc(Cn2c(C3CC3)nc3ccc(NC(=O)c4ccco4)cc3c2=O)cc1 | -0.7
Cn1c(C(=O)O)cc2cc(F)ccc21 | -0.3
CCCNS(=O)(=O)c1ccc(-n2cnnn2)c(OC)c1 | -1.9
Nc1ccccc1C#Cc1ccccc1 | 0.1
O=S(=O)(Nc1ccc(F)cc1)c1cccc2nsnc12 | -1.7
CC(=O)NCCNC(=O)c1oc2ccccc2c1CSc1ncn[nH]1 | -0.9
O=C(CSc1n[nH]c(-c2ccncc2)n1)Nc1ccccn1 | 4.1
Cc1ccc(S(=O)(=O)N(C)CC(=O)OCC(=O)NC(c2ccccc2)c2ccccc2)cc1 | 0.1
CC1(C)CC(NNCCC#N)=CC(=[N+]2CCCC2)C1 | -1.0
Cn1c(CCNS(=O)(=O)c2ccc(F)cc2)nnc1SCc1cccnc1 | -0.8
Cc1cc(NC(=O)Cn2cnc3sc(C)c(C)c3c2=O)no1 | -0.9
CC1CC(C)CN(C(=O)c2nn(C)c3c2CS(=O)(=O)c2ccccc2-3)C1 (stereo not given) | -0.5
CCOC(=O)C1CCCCN1Cc1ccc(F)c(Br)c1 (stereo not given) | 9.2
NC(=O)C1(N2CCCCC2)CCN(S(=O)(=O)c2ccc(Cl)s2)CC1 | 5.7
O=C(/C=C/c1ccc(Cl)cc1)N(c1ccccn1)C1CCCCC1 | -4.8
Cc1ccc2c(c1)[nH]c1c(=O)n(Cc3ccccn3)cnc12 | -3.8
Cc1cc(NC(=O)Cn2cc(C(F)(F)F)cc(Cl)c2=O)no1 | -2.2

Some of the entries so far, with the structure last:
STK33 inh,SMILES
-0.6,O=C(NNc1cc(Cl)ccc1Cl)c1cccnc1Cl
-1.0,CC1CCc2c(sc(NC(=O)c3ccco3)c2C(=O)O)C1 (stereo not given)

Next entries
Molecule | STK33 inh
Cc1cc(C)n(CCN(C)C(=O)c2cc(COc3c(F)cccc3F)on2)n1 | 0.5
O=C(CSc1nc2ccccc2nc1N1CCOCC1)N1CCN(c2ccccc2)CC1 | -1.8
O=C(CCn1cnc2ccccc2c1=O)Nc1nc2c(s1)CCCC2 | 13
CN(c1ccccc1)S(=O)(=O)c1ccc(C(=O)NCc2ccccn2)cc1 | -0.8
C=CCCN(C1CCCC1)S(=O)(=O)c1ccccc1Br | -0.1
O=C(NCC1CCCO1)c1ccc(Cl)c(F)c1F (stereo not given) | -0.3
COC(=O)c1cccc(OC(N)=O)c1 | 0.0
O=C(Cn1ccsc1=NC(=O)c1ccco1)c1ccccc1 | -0.3
Cn1c(CCCOc2ccc(Cl)cc2Cl)nnc1SCC(=O)Nc1cccc(F)c1 | -1.9
CCOC(=O)c1sc2nc(N3CCCC3)c3c(c2c1N)CC(C)(C)OC3 | -2.1
CN(NC(=O)c1ccccc1)c1nc2ccccc2nc1C(F)(F)F | -1.6
O=C(CC1SC(N2CCCCC2)=NC1=O)Nc1cccc(C(=O)Nc2ncccc2O)c1 (stereo not given) | -0.6
Cc1ccc(CC2C(=O)N(c3cc(Cl)ccn3)C(=O)C2C)cc1 (stereo not given) | -1.4
COCCN(C(=O)CNC(=O)c1cccs1)C(C(=O)NC1CCCC1)c1cccs1 (stereo not given) | -1.6
COc1ccccc1CNc1nc2ccccc2n1CCN1CCCCC1 | -0.1
Cc1ccc(C(C)C)c(OCC(=O)NNC(=O)CC2OC(=O)c3ccccc32)c1 (stereo not given) | 0.9
CCOc1ccc(/C=N\NC(=O)c2c(C)nc3cc(C)ccn23)cc1 | -1.3
CCNC(=S)N(CCN(CC)CC)Cc1cc2cc3c(cc2[nH]c1=O)OCO3 | -3.5
COc1ccc(Br)cc1C(=O)Nc1ccccc1N1CCN(C(=O)c2ccccc2)CC1 | -0.6
Nc1nonc1-n1nnc(C(=O)N/N=C/c2ccccc2)c1CSc1ccc(Cl)cc1 | -1.0
CN1CCN(C(=O)c2ccc(F)c(F)c2)CC1 | -0.6
COc1ccc(C(=O)NNC(=O)c2ccccc2[N+](=O)[O-])cc1Br | -0.5
O=C(Nc1ccc2c(c1)OCCO2)C1CC(c2ccccc2Cl)=NO1 (stereo not given) | -1.7
O=C(CN1C(=O)COc2ccccc21)N(Cc1ccc2c(c1)OCO2)CC1CCCO1 (stereo not given) | -2.2
O=C1Nc2ccccc2S/C1=C/NCc1ccccc1Cl | 1.3
COc1ccc(-c2noc(CN(C)Cc3ccc(C)o3)n2)cc1 | -0.7
Cc1ccc(NC(=O)CSCC(=O)NC2CCCCC2)cc1 | 3.4
Cc1ccc(N2C(=O)CC(N3CCSCC3)C2=O)c(C)c1 (stereo not given) | -1.6
CCc1ccc(CCC(=O)Nc2ccc(C(C)=O)cc2)o1 | -1.7
CCOC(=O)C(NC(=O)c1ccc(OC)cc1)(N1CCCC1=O)C(F)(F)F (stereo not given) | -1.2
CN(C)c1ccc(C2NCC(CCl)O2)cc1 (stereo not given) | 0.7
O=C(COc1ccc(Cl)cc1)OCc1csc(Nc2ccccc2)n1 | -2.1
N#C/C(=C\c1ccco1)C(=O)Nn1cnnc1 | 1.3
O=C(/C=C/c1ccco1)Nc1cccc(NC(=O)/C=C/c2ccco2)n1 | -0.2
O=C(COc1ccc(Cl)cc1)NCCSc1ccccc1 | 0.4
COc1ccc2nc(C)c(C(N)=O)cc2c1 | -0.1
COc1ccc(C(=O)NCC(=O)OCC(=O)NC2CCCC2)cc1 | -0.4
Cc1nc2ccc(S(=O)(=O)Nc3cc(-c4nc5cccnc5s4)ccc3C)cc2s1 | -0.4
Cc1cc(C)cc(NC(=O)c2cc3c(=O)n4ccccc4nc3s2)c1 | -1.8
COC(=O)COc1ccc(S(=O)(=O)NCc2ccncc2)cc1 | -0.6
O=C(OCC(=O)N1CCCC1)c1c(Cl)ccc(Cl)c1Cl | -0.5
O=C(COc1ccccc1C(=O)O)Nc1cccc2ccccc12 | -1.9
COc1ccc(-n2nc(C(=O)NCC(=O)NCCCN3CC(C)CC(C)C3)c3ccccc3c2=O)cc1 (stereo not given) | -0.5
Fc1cccc(Cl)c1Cn1nnc2c(NCc3ccccn3)ncnc21 | -1.0
CC(C)CC(C(=O)NC1CCCC1)N(Cc1cccs1)C(=O)c1snc(C(N)=O)c1N (stereo not given) | -1.9
Cc1cc([N+](=O)[O-])cc2c1NC(=O)C2(O)N1CCCCCC1 (stereo not given) | 1.4
CC(=O)c1c(C)[nH]c(C(=O)OCc2cc(=O)n3cc(Br)ccc3n2)c1C | 0.0
c1ccc(-c2ccc(-c3ccccn3)s2)nc1 | 1.2
Cc1c(NC(=O)COc2ccc3ccccc3c2)c(=O)n(-c2ccccc2)n1C | -1.6
COc1ccc(S(=O)(=O)N(C)C[C@H]2Oc3c(NS(=O)(=O)c4cn(C)cn4)cccc3C(=O)N([C@H](C)CO)C[C@@H]2C)cc1 | 0.2

Random excerpt: three entries already listed.
Molecule | STK33 inh
CCc1nnc(NC(=O)C2CCC(CNc3c(N4CCCCC4)c(=O)c3=O)CC2)s1 (stereo not given) | -1.0
COc1ccccc1CNc1nc2ccccc2n1CCN1CCCCC1 | -0.1
O=C(CN1CCN(Cc2ccc(Cl)cc2)CC1)N/N=C/c1ccncc1 | -1.4
